Sa ugtP lethal: compounds lethal to S. aureus RN4220 ugtP deletion mutant. OD600 growth, 16 h; some inactives read as strong as hits. growth inhibition, % (test concentration not listed). actives 0.54% (n = 330,000). AID 1259309;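 active = z-score under -3 and OD600 up to 0.15 on both plates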;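 note: plate controls were untreated wells for no effect and antibiotic for full effect; wells of about 80 µL received 100 nL stock; the first replicate is given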
Mtb hypoxia inh: reduces hypoxia-regulated biosensor signal in M. tuberculosis | fluorescence inhibition, % (test concentration not listed) | M. tuberculosis hypoxia-regulated fluorescent reporter, fluorescence | actives 0.1% (n = 300,000);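 active = 35 to 45% if threefold the growth effect, above 45% if 1.5-fold the growth effect; inactive = the rest, general growth blockers included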;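 note: wells of about 50 µL received 100 nL stock; 0% = vehicle wells and 100% = reference inhibitor wells; whole bacteria with a GFP reporter of the hypoxia response; strong numbers were not always called active; many hits fall short of the cut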
PrP UTR inh: inhibition of PrP 5' UTR reporter expression; inhibition, % (concentration not given with the values); actives 0.35% (n = 340,000); cell-based PrP 5' UTR mRNA reporter, plate reader;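 active = every replicate at 50% or more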;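 note: 0 = median of the neutral control wells; tested in H4 reporter cells; numbers are from one replicate; inactives centre near -14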
Autofluor counter: counter-screen for toxin protease inhibitors: compound fluorescence; fluorescence intensity (test concentration not listed); AID 624483; compound autofluorescence counterscreen, microsphere flow cytometry; stronger effect = higher value; actives 3.1% (n = 360,000);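 active = at least 3 SD above the mean of all compounds, about 16000 in these data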;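 note: 100 nL of 1 mM stock went into each well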
BJeLR lethal: BJeLR cell viability loss; inhibition, % (test concentration not listed); AID 1554; actives 0.17% (n = 300,000); BJeLR (HRASV12) viability, CellTiter-Glo ATP luminescence, 48 h; reference of the scale not given here;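 active = replicate mean above 50%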;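 note: 50 nL library stock added to about 25 µL; numbers are from one replicate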
RN4220 kill: kills Staphylococcus aureus RN4220; S. aureus RN4220 growth, OD600, 16 h; inhibition, % (no concentration beside the values); actives 0.33% (n = 330,000);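 active = z-score of -3 or lower and OD600 up to 0.18 on both plates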;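 note: plate controls were untreated cells for no effect and reference antibiotic for full effect; stock transfer was 100 nL into about 80 µL; one replicate is shown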
Mtb hypoxia inh growth: further read-out of Mtb hypoxia inh, marked with its call; growth inhibition, %; measured here: M. tuberculosis growth (absorbance);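 0% = vehicle and 100% = reference antibiotic; read after six days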
* = called active by the depositor; / = no result given.

(1) O=C(c1cccnc1)N1CCCC(Nc2ccc(F)cc2)C1 (configuration not stated)
(2) COc1ccc(CN2[C@@H](CC(=O)O)c3ccccc3S2(=O)=O)cc1
(3) Cc1ccsc1/C=N/NC(=O)c1nnn(-c2nonc2N)c1C
(4) O=C(NN=Cc1ccc(N(CCCl)CCCl)cc1)c1cccnc1
(5) CCN(CC)c1ccc(S(=O)(=O)N2CCOCC2)cc1NC(=O)CN1C(=O)NC2(CCCC2)C1=O
(6) O=C(NCCO)C(=O)NCC(c1ccc2c(c1)OCO2)N1CCN(c2ccc(F)cc2)CC1 (configuration not stated)
(7) O=S(=O)(NCc1nnc2ccccn12)c1ccc(Cl)cc1
(8) COc1cccc2cc(C(=O)NCc3ccc(Cl)cc3)c(=N)oc12

compound no. | 1 | 2 | 3 | 4 | 5 | 6 | 7 | 8
Sa ugtP lethal | -9 | / | / | 4 | 0 | 2 | -1 | 0
Mtb hypoxia inh | -1 | / | / | 19 | 0 | -6 | -6 | 0
Mtb hypoxia inh growth | 11 | / | / | 9 | -3 | 0 | 4 | 4
PrP UTR inh | -1 | -18 | -2 | -13 | 3 | -6 | 17 | -17
Autofluor counter | 5623 | 3589 | 4727 | 3752 | 5776 | 5876 | 6963 | 5951
BJeLR lethal | 1 | -4 | 0 | / | -5 | -4 | / | 3
RN4220 kill | -3.7 | / | / | 5.2 | 7.9 | 1.0 | -0.1 | 2.1

Values in list order from above:
Autofluor counter, compounds 5 to 8, in order: 5776, 5876, 6963, 5951

Continued.
(9) CCc1cc(C(=O)OC)c(NC(=O)CC2SC(=NC)N(C)C2=O)s1 (configuration not stated)
(10) CCCCNC(=O)c1cc(-c2ccc(OC)c(OC)c2)on1
(11) CCOC(=O)[C@@H]1[C@H]2COc3ccccc3[C@H]2N2C(=O)N(c3ccc(Cl)cc3)C(=O)[C@@]12C
(12) CCOC(=O)C1=C(COC(=O)/C=C/c2ccccc2F)NC(=O)NC1C (configuration not stated)
(13) CCOC(=O)c1ccc(S(=O)(=O)NC2CCC(C)CC2)cc1 (configuration not stated)
(14) Cc1ccc(N2CC(C(=O)NC3=NCCS3)CC2=O)cc1 (configuration not stated)
(15) CC(C)(C)c1ccc(/C=C/C(=O)N2CCCCC2)cc1
(16) Cc1cccc([N+](=O)[O-])c1NC(=O)COC(=O)c1nc2nccc(C)n2n1

compound no. | 9 | 10 | 11 | 12 | 13 | 14 | 15 | 16
Sa ugtP lethal | 5 | -3 | / | / | -5 | 1 | 3 | 5
Mtb hypoxia inh | 17 | 4 | / | / | -11 | 12 | 15 | 8
Mtb hypoxia inh growth | 0 | 12 | / | / | 8 | 6 | 9 | 5
PrP UTR inh | -9 | -22 | -10 | 3 | -8 | -84 | -47 | -62
Autofluor counter | 2504 | 4780 | 3085 | 5060 | 3773 | 3605 | 2083 | 3540
BJeLR lethal | -3 | -2 | 22 | 5 | / | -8 | 5 | /
RN4220 kill | 4.4 | -1.6 | / | / | -3.4 | 3.2 | 6.0 | 2.6

Single entries from the list.
compound 9 in Sa ugtP lethal is entered as 5
compound 5 in PrP UTR inh is entered as 3
compound 1 in Mtb hypoxia inh growth is entered as 11

Continued.
(17) COCCn1c(SCC(=O)N2CCC(C)CC2)nc2c(c1=O)SCC2
(18) CCOC(=O)C1=C(C)NC2=C(C(=O)OC2)C1c1ccccc1 (configuration not stated)
(19) CC(NC(=O)C1CCCN(C(=O)c2ccc(Cl)cc2)C1)c1cccc(C(F)(F)F)c1 (configuration not stated)
(20) Cc1ccc(S(=O)(=O)N(CC(=O)Nc2ccccc2C(=O)O)c2ccccc2)cc1
(21) CSCC[C@H](NC(=O)NCCC1=CCCCC1)C(=O)O
(22) CCCn1c2ccccc2c2cnn(CC(=O)NC3CCCC(C)C3C)c(=O)c21 (configuration not stated)
(23) COc1ccc(CCNC(=O)c2cc3c(=O)n4cccc(C)c4nc3n(CC3CCCO3)c2=N)cc1 (configuration not stated)
(24) COc1ccc(OCC(=O)NNC(=S)NC(=O)c2ccc([N+](=O)[O-])cc2)cc1

compound no. | 17 | 18 | 19 | 20 | 21 | 22 | 23 | 24
Sa ugtP lethal | 5 | 9 | 9 | 9 | / | -4 | 3 | 5
Mtb hypoxia inh | 4 | 2 | 3 | -8 | / | 8 | -2 | 5
Mtb hypoxia inh growth | 2 | -1 | -4 | -6 | / | -3 | 8 | 9
PrP UTR inh | -1 | -63 | -3 | -29 | -16 | 3 | -13 | -11
Autofluor counter | 6211 | 4701 | 6571 | 2546 | 2482 | 6278 | 5595 | 5444
BJeLR lethal | -4 | 4 | / | -1 | -10 | 1 | -5 | 0
RN4220 kill | 2.9 | 3.5 | 6.1 | 7.2 | / | 3.5 | 0.1 | 10

(25) CCOC(=O)c1nc(-c2ccccc2)sc1C(C)=O
(26) CCN(CC(=O)NCc1cccs1)C(=O)CCCOc1ccccc1
(27) COc1cccc(NC(=O)COC(=O)c2sccc2C)c1
(28) Cc1ccccc1C(=O)NC1CCCN(Cc2ccccc2F)C1 (configuration not stated)
(29) CCn1nc(C)c(CNC(=O)C2CCC(=O)N(CCc3ccc(OC)cc3)C2)c1C (configuration not stated)
(30) O=C1C(CCCNC(=S)NCc2ccccc2)NC(=S)N1Cc1ccccc1 (configuration not stated)
(31) C=CCNC(=S)NNc1nc2c(c(=O)[nH]1)C1(CCCCC1)Cc1ccccc1-2
(32) Cn1c(NC(=O)c2ccccc2C(F)(F)F)cc(=O)n(C)c1=O

compound no. | 25 | 26 | 27 | 28 | 29 | 30 | 31 | 32
Sa ugtP lethal | -3 | 0 | 3 | 5 | 2 | -1 | 85* | 11
Mtb hypoxia inh | -5 | 1 | 9 | -1 | 5 | -12 | -12 | -4
Mtb hypoxia inh growth | -4 | 4 | 6 | -4 | 4 | -8 | -8 | 8
PrP UTR inh | -9 | -39 | -59 | 2 | -8 | -24 | -8 | -12
Autofluor counter | 4140 | 3675 | 3619 | 4196 | 5603 | 2257 | 1991 | 5793
BJeLR lethal | -10 | / | / | -9 | 3 | 11 | -2 | 7
RN4220 kill | 3.7 | -1.6 | 2.1 | 3.3 | 2.2 | 6.1 | -18 | 6.7

(33) CC(Nc1cc(N2CCCC2)ccc1[N+](=O)[O-])c1ccccc1 (configuration not stated)
(34) Cc1ccccc1COc1ccc(/C(O)=C2/C(=O)C(=O)N(CCCn3ccnc3)C2c2ccco2)cc1 (configuration not stated)
(35) Cc1noc(C)c1C(=O)Nc1sc(C)c(-c2ccccc2)c1C#N
(36) CCOc1ccc(CCNC(=O)c2cnccn2)cc1OCC
(37) O=C(CNc1ccc(F)cc1)N/N=C1\CCCc2ccccc21
(38) CCOC(=O)C(NC(=O)c1ccccc1)(OCC1(CC)COC1)C(F)(F)F (configuration not stated)
(39) CC1Cc2cc(S(=O)(=O)N3CCC(C(=O)N(C)Cc4ccco4)CC3)ccc2N1C(=O)C1CCC1 (configuration not stated)
(40) O=C(c1cccc(NS(=O)(=O)c2ccccc2)c1)N1CCCCC1

compound no. | 33 | 34 | 35 | 36 | 37 | 38 | 39 | 40
Sa ugtP lethal | 3 | 4 | 53 | 4 | / | -16 | 10 | -1
Mtb hypoxia inh | / | 9 | 2 | 4 | / | -2 | 3 | -11
Mtb hypoxia inh growth | / | 6 | 2 | 5 | / | 7 | -2 | 5
PrP UTR inh | -30 | -11 | -4 | 0 | -33 | -2 | -4 | -12
Autofluor counter | 2982 | 8542 | 22924* | 5694 | 4876 | 4254 | 4427 | /
BJeLR lethal | -1 | 1 | 1 | -7 | 2 | 5 | 6 | 2
RN4220 kill | 1.9 | 2.9 | 69 | 1.6 | / | 14 | 2.8 | 0.1

(41) O=C(CN1C(=O)NC2(CCc3ccccc3C2)C1=O)Nc1ccc(F)cc1 (configuration not stated)
(42) COc1ccc(-n2c(Cc3cccs3)nnc2SCC(=O)Nc2ccc3c(c2)OCCO3)cc1
(43) CCOC(=O)c1ccc(CNC(=O)CSc2nc(NC(=O)c3ccccc3)c3c(C)c(C)oc3n2)cc1
(44) CCc1nnc(NC(=O)CN2CCC(O)(c3ccccc3OC)CC2)s1
(45) CCOC(=O)N1CCC(O)(c2cc(C)c(C)cc2C)CC1
(46) O=C(COC(=O)C1(c2ccc(F)cc2)CCCC1)Nc1ncc(C(F)(F)F)cc1Cl
(47) CCc1cccc2[nH]c3cc([N+](=O)[O-])ccc3c12
(48) O=C(O)CCc1ccc(S(=O)(=O)N2CCOCC2)cc1

compound no. | 41 | 42 | 43 | 44 | 45 | 46 | 47 | 48
Sa ugtP lethal | 5 | 0 | -6 | 9 | 0 | 7 | 7 | 5
Mtb hypoxia inh | 10 | 0 | -10 | 4 | 6 | 8 | 5 | 5
Mtb hypoxia inh growth | 7 | 9 | 1 | 2 | 11 | 2 | 5 | -5
PrP UTR inh | -13 | 2 | 0 | -39 | -15 | -23 | -11 | -6
Autofluor counter | 2543 | 3608 | 10998 | 10297 | 23008* | 2472 | 4157 | 4295
BJeLR lethal | 1 | 0 | 1 | -3 | 7 | 1 | 10 | 6
RN4220 kill | 4.3 | -0.1 | -1.0 | 2.3 | 6.2 | 5.1 | -1.2 | 4.2

A second format for part of the listing above.
Order of results – Sa ugtP lethal, Mtb hypoxia inh, Mtb hypoxia inh growth, PrP UTR inh, Autofluor counter, BJeLR lethal, RN4220 kill
#46 O=C(COC(=O)C1(c2ccc(F)cc2)CCCC1)Nc1ncc(C(F)(F)F)cc1Cl
 : 7, 8, 2, -23, 2472, 1, 5.1
#47 CCc1cccc2[nH]c3cc([N+](=O)[O-])ccc3c12
 : 7, 5, 5, -11, 4157, 10, -1.2

Later entries:
(49) CC(=O)NC(Cc1cccc(F)c1)C(=O)NC1CCN(C(=O)c2cccc(C)c2)CC1 (configuration not stated)
(50) CCCCC(=O)NC(Nc1sc2c(c1C(N)=O)CCCC2)(C(=O)OCC)C(F)(F)F (configuration not stated)
(51) O=C(Nc1nc(=O)[nH]s1)c1ccccc1
(52) COc1cc(-c2nc3n(n2)C(c2ccncc2)C2=C(CCCC2=O)N3)cc(OC)c1OC (configuration not stated)
(53) O=C(c1ccc(-c2ccccc2)c(F)c1)C1CCCN(C(=O)c2cncs2)C1 (configuration not stated)
(54) CCN(CCO)Cc1cn[nH]c1-c1ccc(C)c(C)c1
(55) CCOc1cc(C=NNc2ncc(C)c(=O)[nH]2)ccc1O
(56) CCOC(=O)Cn1nc(C)c2c1CCCC2=O

compound no. | 49 | 50 | 51 | 52 | 53 | 54 | 55 | 56
Sa ugtP lethal | -4 | 1 | 1 | 5 | 16 | -6 | 9 | 5
Mtb hypoxia inh | 7 | 8 | 3 | -14 | 21 | 3 | -1 | /
Mtb hypoxia inh growth | 3 | 8 | 7 | 14 | 2 | 4 | -10 | /
PrP UTR inh | -27 | -54 | -14 | -29 | -11 | -40 | / | -24
Autofluor counter | 4351 | 2196 | 3979 | 4868 | 3737 | 15156 | / | 4643
BJeLR lethal | 5 | -7 | 1 | 5 | 5 | 6 | / | 1
RN4220 kill | 3.2 | 3.3 | 2.0 | 0.8 | 5.2 | 2.4 | 5.9 | 3.2

(57) O=C(Nc1nc(-c2ccncc2)cs1)C1c2ccccc2Oc2ccccc21
(58) O=C(COC(=O)c1ccc2c(c1)OCCO2)NCCc1ccccc1
(59) COc1cccc(C2c3[nH]c4ccccc4c3C[C@H]3C(=O)N(C4CC4)CC(=O)N23)c1 (some centres not stated)
(60) Nc1ncnc2c1ncn2[C@@H]1O[C@H](CO)[C@@H](O)[C@@H]1O
(61) O=C(CN1C(=O)CCC1=O)Nc1nc(-c2ccc3ccccc3c2)cs1
(62) CC(=O)Nc1ccc(OCc2cnc(Cl)s2)cc1

compound no. | 57 | 58 | 59 | 60 | 61 | 62
Sa ugtP lethal | 18 | 2 | 3 | / | -12 | 11
Mtb hypoxia inh | -2 | 0 | -6 | / | -1 | 3
Mtb hypoxia inh growth | 5 | -4 | 6 | / | 8 | -7
PrP UTR inh | -21 | -12 | -14 | -22 | -19 | -38
Autofluor counter | 10232 | 3977 | 3739 | 5802 | 4314 | 3323
BJeLR lethal | 12 | / | 11 | 13 | -2 | -7
RN4220 kill | -16 | 1.8 | 4.1 | / | -1.8 | 9.8

One compound at a time, as listed above. Order of values: Sa ugtP lethal, Mtb hypoxia inh, Mtb hypoxia inh growth, PrP UTR inh, Autofluor counter, BJeLR lethal, RN4220 kill
`O=C(Nc1nc(-c2ccncc2)cs1)C1c2ccccc2Oc2ccccc21` as listed: 18, -2, 5, -21, 10232, 12, -16
`COc1cccc(C2c3[nH]c4ccccc4c3C[C@H]3C(=O)N(C4CC4)CC(=O)N23)c1` (some centres not stated) as listed: 3, -6, 6, -14, 3739, 11, 4.1
`Nc1ncnc2c1ncn2[C@@H]1O[C@H](CO)[C@@H](O)[C@@H]1O` as listed: /, /, /, -22, 5802, 13, /
`CC(=O)Nc1ccc(OCc2cnc(Cl)s2)cc1` as listed: 11, 3, -7, -38, 3323, -7, 9.8
